KCNQ2 block: KCNQ2 potassium channel inhibitors, primary screen, cell-based, CHO-K1, FluxOR thallium flux, B-score (AID 2156); Potassium voltage-gated channel subfamily KQT member 2 (Rattus norvegicus), O88943; 20 min; stronger effect = lower value; only compounds with negative scores are shown here; some inactives read as strong as hits; B-score at 10 µM; hit rate 1.1% among 310,000;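 active means fluorescence ratio B-score at most minus 3 library SDs, with starting brightness B-score within 2 library SDs, cut at about -5.5 in these data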
Target sequence (O88943 whole entry, looked up): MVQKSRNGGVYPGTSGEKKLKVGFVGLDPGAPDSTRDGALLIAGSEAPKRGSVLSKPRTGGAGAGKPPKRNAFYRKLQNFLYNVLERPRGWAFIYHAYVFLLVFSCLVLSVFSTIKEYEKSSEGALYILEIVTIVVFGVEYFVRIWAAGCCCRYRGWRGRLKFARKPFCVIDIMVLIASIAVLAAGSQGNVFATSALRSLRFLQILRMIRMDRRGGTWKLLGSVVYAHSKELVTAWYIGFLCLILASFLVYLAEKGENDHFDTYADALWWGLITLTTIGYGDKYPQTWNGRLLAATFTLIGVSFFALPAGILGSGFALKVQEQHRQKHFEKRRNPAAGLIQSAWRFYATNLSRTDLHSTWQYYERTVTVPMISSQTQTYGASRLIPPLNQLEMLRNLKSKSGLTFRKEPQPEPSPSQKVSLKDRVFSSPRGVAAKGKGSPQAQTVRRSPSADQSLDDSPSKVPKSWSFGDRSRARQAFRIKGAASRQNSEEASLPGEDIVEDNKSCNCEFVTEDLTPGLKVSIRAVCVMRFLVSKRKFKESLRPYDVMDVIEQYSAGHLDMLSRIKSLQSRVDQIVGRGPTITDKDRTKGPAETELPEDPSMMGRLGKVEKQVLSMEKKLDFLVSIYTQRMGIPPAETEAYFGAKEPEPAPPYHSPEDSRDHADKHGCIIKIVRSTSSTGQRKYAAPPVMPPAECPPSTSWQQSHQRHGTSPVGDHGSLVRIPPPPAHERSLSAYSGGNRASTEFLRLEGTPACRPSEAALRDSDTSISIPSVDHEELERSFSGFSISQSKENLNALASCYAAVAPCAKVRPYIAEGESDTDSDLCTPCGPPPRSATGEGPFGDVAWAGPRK
KCNQ2 block baseline: recorded beside KCNQ2 block, whose call it bears; B-score; measured here: initial fluorescence intensity artifact check;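 brightness before thallium and not channel activity; 0 = typical well and far values either way flag optical interference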
Starred values were filed as active, the others as inactive. An excerpt (hit frequency here may not be typical).

What do the screens show for `O=C(O)c1ccccc1C(=O)Nc1cc(C(F)(F)F)ccc1N1CCCC1`?
KCNQ2 block: inactive; KCNQ2 block baseline: 0.13

How did CCCNC(=O)Cn1nc([N+](=O)[O-])c([N+](=O)[O-])c1C do in these assays?
KCNQ2 block: inactive; KCNQ2 block baseline: 1.22

Results for CC(C)(O)C(=O)NN(C(=O)c1ccccc1)c1ccc2ccccc2c1 ?
KCNQ2 block: inactive; KCNQ2 block baseline: -0.92

Results for Fc1ccccc1COc1ccc(C(=S)N2CCCC2)cc1 ?
KCNQ2 block: inactive; KCNQ2 block baseline: 0.73

Results for CC(=O)NNC(=O)c1nc(-c2ccccc2)c(C)o1 ?
KCNQ2 block: inactive; KCNQ2 block baseline: 1.55

What do the screens show for `COc1ccc(CCNC(=O)Cn2cnc3c(cnn3-c3ccccc3Cl)c2=O)cc1OC`?
KCNQ2 block: inactive; KCNQ2 block baseline: -0.49

How did Nn1cnc2scc(-c3cccs3)c2c1=O do in these assays?
KCNQ2 block: inactive; KCNQ2 block baseline: 0.85

Results for Cc1ccc(NS(=O)(=O)c2ccc(NC(=O)c3cccc(NC(=O)C(C)C)c3)cc2)cc1 ?
KCNQ2 block: inactive; KCNQ2 block baseline: 0.41

What do the screens show for `O=C(OCCOc1cccc(Cl)c1)c1cc(S(=O)(=O)N2CCOCC2)ccc1F`?
KCNQ2 block: inactive; KCNQ2 block baseline: 0.04

Results for COc1ccc([N+](=O)[O-])cc1-c1[nH]c(-c2ccc(C(=O)O)cc2)nc1-c1ccccc1 ?
KCNQ2 block: inactive; KCNQ2 block baseline: -1.54

How did N=c1sccn1CC(=O)Nc1cc(S(=O)(=O)N2CCCC2)ccc1Cl do in these assays?
KCNQ2 block: inactive; KCNQ2 block baseline: 0.35

Results for COc1ccc(CNc2nc(SCc3cc(=O)n4cc(Cl)ccc4n3)nc3ccccc23)cc1 ?
KCNQ2 block: inactive; KCNQ2 block baseline: 1.25

What do the screens show for `CC1CC(C)CN(S(=O)(=O)c2ccc3c(c2)CCN3C(=O)CCC(=O)O)C1` (stereo not drawn)?
KCNQ2 block: inactive; KCNQ2 block baseline: -0.76

Results for N/C(CSc1ccc(Cl)cc1)=N\NC(=O)c1ccncc1 ?
KCNQ2 block: inactive; KCNQ2 block baseline: -0.38

How did O=[N+]([O-])c1cccc(CSc2nnc(Cc3ccccc3)n2-c2ccc(F)cc2)c1 do in these assays?
KCNQ2 block: inactive; KCNQ2 block baseline: 0.37

Results for CN(Cc1ccccc1F)C(=O)CNC(=O)Cc1cccc2ccccc12 ?
KCNQ2 block: inactive; KCNQ2 block baseline: 0.03

What do the screens show for `CCC(=O)Nc1cccc(-c2nc3ccccc3o2)c1`?
KCNQ2 block: inactive; KCNQ2 block baseline: -1.08

What do the screens show for `COc1ccc2c(c1)CC(N1CCN(C)CC1)c1cc(OC)ccc1S2` (stereo not drawn)?
KCNQ2 block: inactive; KCNQ2 block baseline: 0.55

How did CCS(=O)(=O)C1=NN2C(=N)/C(=C\c3ccc(SCc4ccco4)o3)C(=O)N=C2S1 do in these assays?
KCNQ2 block: inactive; KCNQ2 block baseline: 4.54

Results for CCOCCCNC(=O)c1cn(C)c2ccc(S(=O)(=O)N3CCCCC3)cc2c1=O ?
KCNQ2 block: inactive; KCNQ2 block baseline: -1.16

Results for N#C/C(=C/c1cn(-c2ccccc2)nc1-c1cccc(S(=O)(=O)N2CCOCC2)c1)C(=O)NCc1ccco1 ?
KCNQ2 block: inactive; KCNQ2 block baseline: 1.49

What do the screens show for `CCc1c(O)c(-c2ccccc2)c(=O)n(-c2ccccn2)c1-c1ccccc1`?
KCNQ2 block: inactive; KCNQ2 block baseline: 1.41

Results for O=C(CCCCCN1C(=O)c2ccccc2C1=O)Nc1ccc(F)cc1 ?
KCNQ2 block: inactive; KCNQ2 block baseline: -0.28

How did COC(=O)C(NC(=O)c1ccco1)(Nc1ccc(Br)cn1)C(F)(F)F (stereo not drawn) do in these assays?
KCNQ2 block: inactive; KCNQ2 block baseline: -2.7

How did COc1cccc2[nH]c3c(N4CC(C)CC(C)C4)ncnc3c12 (stereo not drawn) do in these assays?
KCNQ2 block: inactive; KCNQ2 block baseline: -0.05

Results for Cc1ccc(Cn2nnc3c(=O)[nH]c(C4CCN(C(=O)Cc5cccs5)CC4)nc32)cc1 ?
KCNQ2 block: inactive; KCNQ2 block baseline: -0.79

How did CCOC(=O)c1ccc(NC(=O)C2=C(C)Nc3nc(CCCO)nn3C2c2ccc(OC)cc2)cc1 (stereo not drawn) do in these assays?
KCNQ2 block: inactive; KCNQ2 block baseline: 2

Results for Cc1nc(C)c(CC(=O)N/N=C/c2ccc(O)cc2)c(=O)[nH]1 ?
KCNQ2 block: inactive; KCNQ2 block baseline: 0.04

What do the screens show for `CC(C)CN1CCC(=O)N([C@H](COc2ccccc2)c2ccccc2)CC1`?
KCNQ2 block: inactive; KCNQ2 block baseline: -2.34

What do the screens show for `COc1ccc2[nH]c(C(=O)N3CCN(Cc4ccccc4)CC3)cc2c1OC`?
KCNQ2 block: inactive; KCNQ2 block baseline: 1.77

What do the screens show for `O=C(NCc1ccccc1)C(c1ccco1)N(C(=O)c1cnccn1)c1ccc(F)cc1` (stereo not drawn)?
KCNQ2 block: inactive; KCNQ2 block baseline: -0.87

What do the screens show for `Cc1ccc(S(=O)(=O)Cn2nnnc2C(C)N2CCN(C(=O)c3ccco3)CC2)cc1` (stereo not drawn)?
KCNQ2 block: inactive; KCNQ2 block baseline: 0.65

How did CCCCCOC(=O)Nc1nnc(CCCCC)s1 do in these assays?
KCNQ2 block: inactive; KCNQ2 block baseline: -0.1

What do the screens show for `O=C(Cc1ccccc1)NC(=S)Nc1ccc2oc(-c3ccccc3F)nc2c1`?
KCNQ2 block: inactive; KCNQ2 block baseline: -1.5

How did COc1ccc(C(=O)Nc2oc(-c3ccccc3)c(-c3ccccc3)c2C#N)cc1 do in these assays?
KCNQ2 block: inactive; KCNQ2 block baseline: -3.3

Results for COc1cccc2c1nc(C)c1cc(C)oc12 ?
KCNQ2 block: inactive; KCNQ2 block baseline: -0.13

How did CCN(C(=O)COC(=O)c1cc(-c2ccc(C)o2)nc2ccccc12)C1CCS(=O)(=O)C1 (stereo not drawn) do in these assays?
KCNQ2 block: inactive; KCNQ2 block baseline: -1.98

Results for Cn1c(=O)oc2cc(S(=O)(=O)NCCC(=O)N3CCN(c4ccccc4)CC3)ccc21 ?
KCNQ2 block: inactive; KCNQ2 block baseline: 1.15

How did Cc1cc(C)c(S(=O)(=O)NCc2ccccn2)c(C)c1 do in these assays?
KCNQ2 block: inactive; KCNQ2 block baseline: -0.16

How did O=C(CN(Cc1ccccc1)S(=O)(=O)c1ccc(F)cc1)NCc1cccnc1 do in these assays?
KCNQ2 block: inactive; KCNQ2 block baseline: -0.86

What do the screens show for `Cc1cc(C)nc(SCc2csc(N)n2)n1`?
KCNQ2 block: inactive; KCNQ2 block baseline: -1.43

How did CC(C)N(Cc1nc(-c2ccccc2)no1)C(=O)c1ccc(Cl)cc1 do in these assays?
KCNQ2 block: inactive; KCNQ2 block baseline: -1.04

How did O=C(Nc1ccccc1)Nc1ccc(Cl)c(S(=O)(=O)N2CCOCC2)c1 do in these assays?
KCNQ2 block: inactive; KCNQ2 block baseline: 0.25

Results for COC(=O)CSCC(=O)Nc1cc2c(cc1C(C)=O)OCO2 ?
KCNQ2 block: inactive; KCNQ2 block baseline: -0.32

How did C/C(Cl)=C\Cn1c(N2CCCC2)nc2c1c(=O)[nH]c(=O)n2C do in these assays?
KCNQ2 block: inactive; KCNQ2 block baseline: 0.67

What do the screens show for `CNC(=O)c1ccccc1NC(=O)c1c(O)c2c([nH]c1=O)CCCC2`?
KCNQ2 block: inactive; KCNQ2 block baseline: 0.69

Results for COc1ccc(NC(=O)C2=C(C)NC(=S)NC2c2ccc(O)c(OC)c2)cc1 (stereo not drawn) ?
KCNQ2 block: inactive; KCNQ2 block baseline: 1.39

Results for Cc1ccc(C(=O)NNC(=S)Nc2cccc(Cl)c2Cl)cc1[N+](=O)[O-] ?
KCNQ2 block: inactive; KCNQ2 block baseline: 0.51

Results for COc1cccc(C(=O)NNC(=O)/C=C/c2ccccc2)c1 ?
KCNQ2 block: inactive; KCNQ2 block baseline: 0.5

Results for CCOC(=O)C1CCCN(c2ncnc3c2cnn3-c2cccc(C)c2)C1 (stereo not drawn) ?
KCNQ2 block: inactive; KCNQ2 block baseline: -0.43

What do the screens show for `O=C(CCc1ccccc1)NN1C(=O)C2C3C=CC(O3)C2C1=O` (stereo not drawn)?
KCNQ2 block: inactive; KCNQ2 block baseline: -0.94

Results for Cc1ccc(CCNC(=O)CS(=O)Cc2nc(-c3ccccc3Cl)oc2C)cc1 (stereo not drawn) ?
KCNQ2 block: inactive; KCNQ2 block baseline: 1.32

How did COc1ccccc1CCc1nnc(CCC(=O)NC(C)Cc2cccnc2)o1 (stereo not drawn) do in these assays?
KCNQ2 block: inactive; KCNQ2 block baseline: -0.01

What do the screens show for `NS(=O)(=O)c1ccc(Nc2nc(-c3ccccc3)cs2)cc1`?
KCNQ2 block: inactive; KCNQ2 block baseline: 0.71

What do the screens show for `O=C(Cc1ccc(Br)cc1)N(Cc1ccccc1)c1ccccn1`?
KCNQ2 block: inactive; KCNQ2 block baseline: -0.76

Results for CC(C)=CC(=O)NCc1c(Cl)cccc1-n1cccc1 ?
KCNQ2 block: inactive; KCNQ2 block baseline: 0.19

How did COc1ccc2cc3c(N)nn(C(=O)C4CCC(C(C)(C)C)CC4)c3nc2c1 (stereo not drawn) do in these assays?
KCNQ2 block: inactive; KCNQ2 block baseline: -0.46

How did Cc1c(C#N)c(N)nc2c3c(sc12)NC(=O)CC3c1ccc(Cl)cc1 (stereo not drawn) do in these assays?
KCNQ2 block: inactive; KCNQ2 block baseline: -0.56

How did Cc1cccc(NC(=O)c2cccc(OC(=S)N3CCOCC3)c2)c1C do in these assays?
KCNQ2 block: inactive; KCNQ2 block baseline: 0.37

What do the screens show for `COc1ccc(N2CCN(CCNC(=O)Nc3ccc([N+](=O)[O-])cc3OC)CC2)cc1`?
KCNQ2 block: inactive; KCNQ2 block baseline: 0.23

Results for CC(Oc1ccc(F)cc1)C(=O)/C=C\N(C)C (stereo not drawn) ?
KCNQ2 block: inactive; KCNQ2 block baseline: 0.74

Results for CCCCCCNC(=O)c1cccc(-c2ccc(C)c3ccccc23)n1 ?
KCNQ2 block: inactive; KCNQ2 block baseline: 0.22

What do the screens show for `Cc1ccc(C(=O)NC(=S)Nc2ccc(-c3cc4ccccc4oc3=O)cc2)c(C)c1`?
KCNQ2 block: inactive; KCNQ2 block baseline: -0.97

What do the screens show for `S=c1[nH]ncn1/N=C/c1cccc(Oc2ccccc2)c1`?
KCNQ2 block: inactive; KCNQ2 block baseline: 0.33

Results for CS(=O)(=O)Nc1ccccc1Oc1ccccc1 ?
KCNQ2 block: inactive; KCNQ2 block baseline: -0.31

Results for CC1Cc2cc(/C(O)=C3/C(=O)C(=O)N(Cc4cccnc4)C3c3cccc(O)c3)ccc2O1 (stereo not drawn) ?
KCNQ2 block: inactive; KCNQ2 block baseline: 0.4

How did CCN1CCN(c2c(C(=O)c3ccc(OC)cc3)cnc3ccccc23)CC1 do in these assays?
KCNQ2 block: inactive; KCNQ2 block baseline: 0.11

How did Cc1ccc(C(=O)CCC(=O)CCC(=O)O)cc1 do in these assays?
KCNQ2 block: inactive; KCNQ2 block baseline: -0.01

Results for COc1ccc(-c2cc(C(F)(F)F)nc(-n3cc(Br)cn3)n2)cc1 ?
KCNQ2 block: inactive; KCNQ2 block baseline: 0.24

How did CC(C)(C)N(NC(=O)c1ccccc1)C(=O)c1ccc(C(=O)N(NC(=O)c2ccccc2)C(C)(C)C)cc1 do in these assays?
KCNQ2 block: inactive; KCNQ2 block baseline: 2.38

Results for COc1ccccc1CN1CC(C(=O)NCCSc2nnnn2C)CCC1=O (stereo not drawn) ?
KCNQ2 block: inactive; KCNQ2 block baseline: -0.92

How did COc1ccc(NC(=O)COc2ccc(C(=O)OCC(=O)N(C(C)C)C(C)C)cc2OC)cc1 do in these assays?
KCNQ2 block: inactive; KCNQ2 block baseline: -0.64

From PubChem
